# Assay outcomes deposited in PubChem BioAssay by several laboratories.
# eIF4H FP inh: inhibitors of RNA binding by human eIF4H | Q15056 | eIF4H fluorescence polarization binding assay | inhibition, % at 35 µM | 290,000 compounds, 0.94% hits | AID 2012;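 active means 50% or more with normal probe brightness, or confirmed in later tests; inconclusive means above 50% with abnormal brightness, or retests that disagree; inactive means below 50% or failed in later tests; about a fifth of its hits are not listed in these tables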;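 further: calls also rest on retests at 20 µM and on dose response follow-up; 0% = protein and probe with vehicle and 100% = probe without protein; strong numbers were not always called active; many hits fall short of the cut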
# CSC inhib: blocks cancer stem cells | cancer stem cell-like cells viability, luminescence | inhibition, % at 7.5 µM | 300,000 compounds, 1.1% hits;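 active means mean at 75% or more and at least half the replicates too; inconclusive means mean and replicates disagree; tested in HMLE shEcad cells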;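 further: 0% = median of negative and 100% = median of positive control wells; the first replicate is given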
# MT1-MMP act inh: inhibitors of human MT1-MMP activation; P50281; HT1080 RFP-PRO-GFP cells, GFP/RFP ratio fluorescence, overnight; percent of plate control window, DMSO zero; GFP/RFP ratio change, % at 20 µM; 360,000 compounds, 0.061% hits; AID 651647;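 active means GFP/RFP ratio change of at least 30% with cell ATP level not reduced by more than half and red fluorescence within 50% of control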; further: strong numbers were not always called active
#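 Assay system – RFP-PRO-GFP reporter HT1080 cells · Compound dosing – single dose of 20 µM compound, 1% DMSO final · Incubation – overnight compound exposure at 37 °C · Measure – GFP/RFP fluorescence ratio · Benchmarks – DMSO wells and RFP-L50D-GFP cells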
# HIV Env fusion: blocks HIV Env-driven cell-cell fusion; 360,000 compounds, 1.1% hits; HeLa-JRFL Env/CEM21 cell fusion, luciferase; inhibition, % at 12.3 µM;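 active means mean replicate inhibition score of at least 50 and every replicate individually at or above 50; inconclusive means only one of the two criteria met; inactive means mean below 50 and not all replicates reaching 50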;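 further: 0% = plate neutral controls and 100% = maraviroc near 300 nM; one replicate is shown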
# UUG fidelity: alters start codon recognition fidelity in yeast. activity score, % at 18.7 µM. 350,000 compounds, 0.13% hits. S. cerevisiae UUG-firefly luciferase reporter, luminescence/redox ratio. AID 602363;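 active means replicate mean at a twofold rise or more, about +100% in these data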;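 further: firefly luciferase made from a UUG start codon reports start codon fidelity; reporter light over untreated wells divided by growth signal over untreated wells; some hits fall short of that in this replicate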
# Rce1 inh: inhibitors of yeast Ras-converting enzyme | Q03530 | yeast membranes, quenched prenylated peptide cleavage fluorescence | 290,000 compounds, 0.27% hits | AID 2563 | calls only;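 active means fall in fluorescence gain of 50% or more versus controls, with final raw signal at or below 3038400; inconclusive means same 50% fall but final raw signal above 3038400; inactive means fall in fluorescence gain under 50%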;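 further: plate controls were neutral control wells for no effect and wells lacking membranes for full effect; tested at 10 µM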
# PABP polyA inh: PABP-poly(A) binding inhibition; inhibition, % at 35 µM; PABP-poly(A) RNA binding, fluorescence polarization; AID 2014; P11940; 290,000 compounds, 1% hits;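 active means 50% or more with normal probe brightness, or confirmed in later tests; inconclusive means above 50% with abnormal brightness, or retests that disagree; inactive means below 50% or failed in later tests; about a fifth of its hits are not listed in these tables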;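 further: calls also rest on retests at 20 µM and on dose response follow-up; controls were probe without protein and protein plus probe with vehicle; some compounds called inactive have numbers as strong as hits; many hits fall short of the cut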
# Target sequence (P11940 whole entry, looked up): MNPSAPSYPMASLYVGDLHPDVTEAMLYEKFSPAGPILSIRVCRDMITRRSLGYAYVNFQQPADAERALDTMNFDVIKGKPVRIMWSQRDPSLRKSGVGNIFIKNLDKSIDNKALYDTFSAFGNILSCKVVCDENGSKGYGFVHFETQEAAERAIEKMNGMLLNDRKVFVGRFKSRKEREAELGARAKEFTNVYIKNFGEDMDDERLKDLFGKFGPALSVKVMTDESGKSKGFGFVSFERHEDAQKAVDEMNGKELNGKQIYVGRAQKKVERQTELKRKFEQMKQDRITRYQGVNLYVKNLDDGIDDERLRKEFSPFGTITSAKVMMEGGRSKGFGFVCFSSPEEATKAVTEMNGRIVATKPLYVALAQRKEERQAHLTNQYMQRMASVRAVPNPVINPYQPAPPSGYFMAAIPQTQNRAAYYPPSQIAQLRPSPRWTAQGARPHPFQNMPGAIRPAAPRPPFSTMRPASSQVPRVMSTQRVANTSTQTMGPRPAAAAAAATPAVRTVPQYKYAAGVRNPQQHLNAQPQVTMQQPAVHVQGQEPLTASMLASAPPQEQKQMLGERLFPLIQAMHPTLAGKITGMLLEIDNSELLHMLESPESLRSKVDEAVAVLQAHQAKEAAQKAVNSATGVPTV
# MT1-MMP act inh RFP: further read-out of MT1-MMP act inh, marked with its call; RFP signal change, %; measured here: RFP expression control read;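 0 = vehicle wells; hits needed this value within 50% of zero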
# Numbers without * were called inactive; i = inactive; ? = inconclusive; . = not tested or not shown.
SMILES,eIF4H FP inh,CSC inhib,MT1-MMP act inh,MT1-MMP act inh RFP,HIV Env fusion,UUG fidelity,Rce1 inh,PABP polyA inh
COc1cccc(C(=O)N2CCN(Cc3cccc(F)c3)CC2)c1,0,-11,1,3,8,-4,i,1
Cc1ccc2c(COC(=O)CNS(=O)(=O)c3ccccc3)cc(=O)oc2c1,.,-9,-1,4,.,-9,.,.
O=C(N/N=C/c1ccc(-c2ccc([N+](=O)[O-])cc2)o1)C(O)c1ccccc1 (stereo unspecified),-6,-4,-4,-1,4,.,i,3
S=c1[nH]nc(-c2ccccn2)n1/N=C/c1c(Cl)cccc1Cl,-3,0,-3,-1,7,.,i,5
Cc1ccc(N2C(=O)C(NC(=O)c3c(F)cccc3F)(C(F)(F)F)C3=C2CC(C)(C)CC3=O)cc1 (stereo unspecified),4,13,1,4,8,7,i,-6
O=C1NC(c2ccccc2)C(C(=O)c2cccs2)C(O)(C(F)(F)F)N1 (stereo unspecified),-15,-5,2,0,.,.,i,3
CN1CCN(C(=O)c2ccc(-c3cc4nc(NCc5cccnc5)n(C)c(=O)c4s3)cc2)CC1,.,.,4,3,14,-13,.,.
O=C(COC(=O)CCOc1ccccc1)Nc1ncc(Cl)cc1Cl,12,2,-4,3,-27,13,i,14
COc1ccc(CNC(=O)C2CCCN(c3nc4ccccc4o3)C2)c(OC)c1 (stereo unspecified),-6,-6,9,-3,.,.,i,0
CCCCOc1ccc(CCC(=O)N/N=C/c2ccco2)cc1,-7,-2,4,1,4,5,i,-4
Cc1ccc(NS(=O)(=O)c2ccc(-n3cccn3)cc2)c(Br)c1,.,.,-2,-8,-3,-12,.,.
COc1ccccc1C(=O)NC(=O)COC(=O)c1ccc(NC(=O)CC#N)cc1,.,-13,6,9,2,-16,i,.
Cc1cc(-c2nc(-c3ccncc3)no2)ccc1[N+](=O)[O-],-5,7,4,1,-71,.,i,-2
COc1cc(OC)c(C2CC(=O)N3CN(C)CSC3=C2C#N)cc1OC (stereo unspecified),14,-8,1,2,.,-14,i,6
O=C(NC1CCCc2ccccc21)C1CCN(c2c3c(nc4ncnn24)CCC3)CC1 (stereo unspecified),-11,.,0,-3,.,.,i,6
O=C(Nc1ccc(S(=O)(=O)N2CCCCCC2)cc1)c1ccco1,-8,-2,2,2,-118,0,i,1
CCCOc1nc2c(c(=O)n(C)c(=O)n2C)n1Cc1cccc2ccccc12,15,5,-6,-26,.,-17,i,0
CCCc1cc(=O)[nH]c(SCCCCN2C(=O)c3ccccc3C2=O)n1,-13,-2,-2,2,11,.,i,-1
CNC(=S)Nc1ccc(N2CCCC2)c(S(=O)(=O)Nc2ccc(OC)cc2)c1,.,-6,-2,0,1,-11,.,.
O=C1CCCN1CCCNS(=O)(=O)c1cccs1,.,5,-1,1,.,-19,.,.
C=CCN(c1ccccc1)S(=O)(=O)c1cccc(C(=O)OCC(=O)NC2CC2)c1,7,-3,0,-3,1,7,i,6
CCOC(=O)CN(C)Cc1c[nH]c2ccccc12,6,-6,.,.,.,.,i,16
Cc1ccc(C(=O)Nc2ccc3c(c2)OCO3)cc1S(=O)(=O)N1CCCCC1,-12,-25,1,-15,.,-11,i,-3
CC/C(=C1/C(=O)CC(C)(C)C(C(=O)OC)C1=O)N1CCCC1 (stereo unspecified),4,-8,2,-1,.,-2,i,1
CC1(C(=O)O)CCC(C(=O)Nc2ccccc2O)C1(C)C (stereo unspecified),3,-9,-2,0,-62,-11,i,3
COc1cccc(-c2cc(=O)c3cc(NC(C)=O)ccc3[nH]2)c1,-7,37,11,0,-18,-15,i,12
Cc1cc([N+](=O)[O-])nn1CC(=O)NNC(=S)Nc1ccc(F)cc1,6,0,6,6,-42,-27,i,-4
CC(=O)Nc1ccc(S(=O)(=O)/N=C2/NC(=O)/C(=C\c3ccco3)S2)cc1,88*,-3,-11,4,2,.,i,74*
Cc1ccc(O)c(C2=NNC(O)(C(F)(F)F)C2)c1 (stereo unspecified),-5,22,8,-6,.,.,i,-15
CCOC(=O)/C(=C\C=C\c1ccccc1)NC(=O)c1ccccc1,-7,-7,6,-10,.,-15,i,-16
Cc1ccc(C(=O)Nc2ccc(Nc3ccccc3)cc2)cc1Br,.,65,10,-5,-39,25,.,.
COc1ccc(NC(=S)NNS(=O)(=O)c2ccc3ccccc3c2)c(OC)c1,-1,5,3,6,-4,.,i,1
Cc1ccc(CNC(=O)CSCc2cccc(F)c2)cc1,-9,-12,4,1,1,.,i,-14
COc1ccc(C2CC(=O)C(C=NCCCN3CCOCC3)=C(O)C2)cc1 (stereo unspecified),-1,-11,6,6,23,-15,i,-7
Cc1ccccc1NC(=O)Cc1nc(COC(=O)c2cccc(O)c2)cs1,.,-12,-2,2,-2,-7,.,.
CCCC(=O)Nc1ccc2nc(C)n(Cc3ccccc3Cl)c(=O)c2c1,6,1,5,-8,25,2,i,-4
COCCN(CC1CCCN(C2Cc3ccccc3C2)C1)C(=O)CCSC (stereo unspecified),7,-2,2,5,24,4,i,7
CC(Oc1ccc(Cl)cc1)C(=O)Nc1sccc1C(N)=O (stereo unspecified),-2,1,-4,-8,-4,.,i,-3
CCCn1nnc(NC(=O)c2ccc(F)cc2)n1,-9,6,-7,1,.,-8,i,-6
O=C(CN1CCOCCOCCOCC1)Nc1ccccc1,-6,-8,0,3,0,-8,i,-2
CC1CN(S(=O)(=O)c2cccc(-c3cn4ccccc4n3)c2)CC(C)O1 (stereo unspecified),-9,10,-16,-9,.,4,.,4
CC(C)/C=N\NC(=O)CCCCC(=O)N/N=C/C(C)C,0,-14,-2,5,9,.,i,11
COc1cccc(/C=N/c2nc3ccccc3[nH]2)c1O,-7,-9,-1,-1,0,-18,i,1
CSc1nsc(SCC(=O)Nc2ccc(Br)cn2)n1,12,10,-6,-4,.,-13,i,18
CC(=O)NC(CC(=O)OCC(=O)NCCc1ccccc1)c1ccccc1 (stereo unspecified),.,8,2,2,3,-12,i,.
CCCCCC(O)(c1ccccc1)C(CN1CCOCC1)c1ccccc1 (stereo unspecified),4,3,-25,-20,37,-6,i,8
Cc1cccc(N(C)C(=O)c2cc(S(=O)(=O)N3CCCC3)cn2C)c1,-9,.,0,3,?,0,i,-8
O=C(Nc1cccn(Cc2ccc(F)cc2)c1=O)NC1CCCCC1,4,-5,-10,-9,-18,-12,i,7
Cc1ccc(C)c(-c2nnc(NC(=O)CCS(=O)(=O)c3ccccc3)o2)c1,.,39,-2,2,-23,.,i,.
COc1ccc(/C=C2/SC(=S)N(CCCC(=O)N3CCN(C)CC3)C2=O)cc1,2,3,-5,-2,3,-48,i,6
CCc1nonc1NC(=O)c1oc2cc(Br)ccc2c1C,.,11,-1,-3,-11,-9,i,.
CCc1nnc(NC(=O)c2csc3c2CCC(C)C3)s1 (stereo unspecified),-3,-10,.,.,.,.,i,-1
COc1ccc(C2C(C(C)=O)=C(O)C(=O)N2c2cccnc2)cc1OC (stereo unspecified),-8,7,1,2,-24,.,i,5
CCN(CC)S(=O)(=O)c1ccc(/C(O)=C(\C#N)c2nc3ccccc3n2C)cc1,-1,35,15,-6,4,.,i,4
Cc1cc(C(C)(C)C)cc(S(=O)(=O)NCCO)c1C,2,.,6,4,.,-8,i,7
CCCCN1CC[C@H]2C=CC[C@@H](C(=O)NCCc3ccccc3)[C@H]2C1=O,.,-15,-1,-1,1,-20,i,.
CC1(C)N=C(N)N=C(N)N1c1ccc(F)cc1F,1,3,4,5,.,-16,i,1
COc1ccc(N2CCN(C(=O)CCc3c[nH]c4ccccc34)CC2)cc1,0,-16,0,4,23,.,i,-6
CCN(CC)CCN(C(=O)c1ccc(N2C(=O)CCC2=O)cc1)c1nc2cc3c(cc2s1)OCCO3,15,-15,1,5,-3,.,i,-3
COc1cc(/C=C/C(=O)N2CCC=CC2=O)cc(OC)c1OC,.,36,0,-13,i,-16,.,.

# Next section.
SMILES,eIF4H FP inh,CSC inhib,MT1-MMP act inh,MT1-MMP act inh RFP,HIV Env fusion,UUG fidelity,Rce1 inh,PABP polyA inh
CCn1cc(CNC(=O)c2cc(-c3cc(OC)ccc3OC)nc3ccccc23)c(C)n1,3,3,2,3,11,.,i,12
COc1cccc(N2C(=O)CC(c3c[nH]c4ccccc34)C2=O)c1 (stereo unspecified),7,-11,-5,4,-64,-2,i,6
CC1=C(C(=O)OC(C)C)C(c2ccc(Cl)cc2)n2c(sc(=Cc3ccc(OCC(=O)O)cc3)c2=O)=N1 (stereo unspecified),.,.,-15,-11,11,-15,.,.
Cc1ccc(NC(=O)CCn2cccc2)cc1C,2,14,0,-2,5,-12,i,6
CN(C(=O)c1ccccc1C(=O)OCC(=O)NCc1ccccc1)C1CCCCC1,4,-13,-2,0,11,.,i,-4
Cc1sc2nc(C3CC3)nc(N3CCN(C(=O)c4ccc(F)cc4)CC3)c2c1C,-14,.,0,-5,12,-6,i,-6
CC1CCCN(C(=O)COC(=O)C2CCN(S(=O)(=O)c3ccc4c(c3)OCCO4)CC2)C1 (stereo unspecified),.,3,11,3,2,-4,i,.
C=CCC1C=C(Cc2ccccc2)CC(CC=C)N1 (stereo unspecified),-11,13,-2,2,17,.,i,26
O=C(COCc1cc(-c2ccc3c(c2)OCO3)on1)Nc1cccnc1,-6,-4,4,0,-7,-8,i,-1
CC(=O)c1cccc(-n2nnnc2SCC(=O)NNC(=O)C2CCCCC2)c1,-3,3,1,6,-5,.,i,1
COc1ccc(C(C)=O)cc1CS(=O)(=O)CC(=O)NCCc1c[nH]c2ccccc12,.,-28,27,-1,-11,-17,.,.
C=CCn1c(-c2ccc(OC)cc2)csc1=Nc1c(C)n(C)n(-c2ccccc2)c1=O,-8,3,-5,-20,.,-1,i,5
COc1ccc(NC(=O)CN(C)C(=O)CCc2nc3cc(S(=O)(=O)N4CCOCC4)ccc3n2C)cc1,.,-7,5,5,.,-19,i,.
Cn1c(C(=O)O)c(CC(=O)Nc2ccc3c(c2)OCCO3)c2ccccc21,-8,-9,4,5,-29,-47,i,12
CCc1cc(=O)oc2cc(C)cc(OC(=O)c3ccco3)c12,-2,-6,0,-2,-14,5,i,-2
O=c1[nH]c(-c2ccc(Cl)cc2)cs1,-4,11,2,6,-12,.,.,-6
Cc1ccc(Cl)cc1NC(=O)CC(O)(C(F)(F)F)C(F)(F)F,-7,42,-5,-30,.,-9,i,-1
CC(=O)c1ccc(N2CCN(C(C)C(=O)Nc3ccc4c(c3)OCCO4)CC2)cc1 (stereo unspecified),.,-15,0,-3,-7,12,.,.
COc1ccc(CNC(=O)C2CCCN2C(=O)NC2CCCCC2)cc1 (stereo unspecified),6,-3,1,2,5,-10,i,-1
Cc1ccc(C(=O)Nc2ccncc2)c(C)c1,5,-11,6,-9,0,-15,i,-6
COc1ccc(/C=N/NC(=O)Nc2cccc3nsnc23)cc1OC,-1,1,-16,-11,.,.,i,-4
Cc1cccc2cc(CN(CC3CCCO3)C(=O)c3ccco3)c(=O)[nH]c12 (stereo unspecified),4,10,-3,-1,.,0,i,-4

# Pulled by compound from the entries so far:
SMILES,eIF4H FP inh,CSC inhib,MT1-MMP act inh,MT1-MMP act inh RFP,HIV Env fusion,UUG fidelity,Rce1 inh,PABP polyA inh
Cc1ccc(CNC(=O)CSCc2cccc(F)c2)cc1,-9,-12,4,1,1,.,i,-14
CCN(CC)S(=O)(=O)c1ccc(/C(O)=C(\C#N)c2nc3ccccc3n2C)cc1,-1,35,15,-6,4,.,i,4
CCc1nonc1NC(=O)c1oc2cc(Br)ccc2c1C,.,11,-1,-3,-11,-9,i,.
